Screens from PubChem.
VDR inhibitor: blocks the human vitamin D receptor. Potency, µM, for inactives: max response, negative = inhibition, actives largely listed as inhibitors. P11473. 400,000 compounds, 0.93% hits. VDR-SRC2-3 peptide fluorescence polarization, 2 h; active = well fitted inhibition curve with a large enough effect; inconclusive = small, poorly fitted or top-dose-only effect, or another doubt; inactive = no such curve, though single readings can be large or run the other way; note: series mostly up to about 120 µM
Target sequence (P11473 whole entry, looked up): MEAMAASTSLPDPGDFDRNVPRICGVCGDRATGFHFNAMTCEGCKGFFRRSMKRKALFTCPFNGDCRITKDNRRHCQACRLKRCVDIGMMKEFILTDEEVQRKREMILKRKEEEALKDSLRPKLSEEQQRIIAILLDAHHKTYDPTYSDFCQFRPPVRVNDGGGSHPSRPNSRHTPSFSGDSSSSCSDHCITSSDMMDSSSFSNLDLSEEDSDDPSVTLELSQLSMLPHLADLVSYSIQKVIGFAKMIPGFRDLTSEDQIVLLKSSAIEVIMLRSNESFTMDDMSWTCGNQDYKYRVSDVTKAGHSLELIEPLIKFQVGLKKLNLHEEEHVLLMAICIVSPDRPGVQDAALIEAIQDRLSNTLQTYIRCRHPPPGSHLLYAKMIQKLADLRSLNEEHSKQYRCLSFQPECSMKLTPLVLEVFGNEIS
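Reagent solutions, kept cold and dark, are dispensed first; compounds are then pinned in at 23 nl, plates briefly spun, and incubated 2 h at ambient temperature. Inhibition of VDR–SRC2-3 peptide binding is read by fluorescence polarization.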
Starred values were filed as active, the others as inactive; ? = inconclusive; & = joins results of further samples; [ ] = another dose, or the depositor's remark. % is set by controls: 0 for no effect and ±100 for the full control effect; potency is the fitted concentration of half-maximal effect. The list is partial; count on the stated rates, not on these rows.

The opening four records as a preview:
SMILES	VDR inhibitor
CC(NC(=O)Cn1cc(Br)c([N+](=O)[O-])n1)c1ccccc1 (stereo not given)	4.7%
c1ccc(-c2cn3nc(-c4ccccc4)c(-c4ccccc4)nc3n2)cc1	4.6%
O=C(CC(=O)Nc1cccc(F)c1)Nc1cccc(F)c1	8.0%
Cc1c2c(nc3nc4ccccc4n13)CC(C)(C)CC2=O	-5.5%

The listing, from the start:
SMILES	VDR inhibitor
CC(NC(=O)Cn1cc(Br)c([N+](=O)[O-])n1)c1ccccc1 (stereo not given)	4.7%
c1ccc(-c2cn3nc(-c4ccccc4)c(-c4ccccc4)nc3n2)cc1	4.6%
O=C(CC(=O)Nc1cccc(F)c1)Nc1cccc(F)c1	8.0%
Cc1c2c(nc3nc4ccccc4n13)CC(C)(C)CC2=O	-5.5%
O=C(NCCc1nc2ccccc2n1Cc1ccc(F)cc1)c1ccco1	-7.6%
COc1ccc(C#Cc2c(-c3ccsc3)oc3ccc(N4CCOCC4)cc23)cc1	-9.5%
COc1ccc(NC(=O)CSc2nnc(-c3ccc(F)cc3)o2)cn1	-1.0%
COc1ccc(/C=C2\CCC(C3CCCC3)C2=O)c(OC)c1 (stereo not given)	172.1%[activator]
CC(NC(=O)c1cccc(Nc2nc3ccccc3n3nnnc23)c1)c1ccccc1 (stereo not given)	10.9%
CCc1ccc(NC(=O)C2=CC(c3ccc4c(c3)OCO4)=NS(=O)(=O)N2C)cc1	19.7%
CSc1nsc(NC(=O)OCc2ccc(Cl)cc2)n1	-12.9%
Cc1noc(C)c1CSc1ccccc1C(=O)O	-8.3%
COc1cc(C(C(=O)NC2CCCC2)N(C(=O)c2snc(C(N)=O)c2N)C2CCCC2)cc(OC)c1OC (stereo not given)	3.4%
O=C(Nc1ccc(NS(=O)(=O)c2ccccc2)cc1)c1ccc(Cl)cc1	-4.8%
O=c1cc(-c2ccccc2)oc2cc(OCc3ccccc3)cc(O)c12	20.6%
COc1ccc(CNC(=O)CCCn2nc(C)c3c(C)n(-c4ccccc4)nc3c2=O)cc1	-1.2%&6.3%
COc1cc(NC(=O)CN2CCC(C(N)=O)(N3CCCCC3)CC2)c(OC)cc1Cl	-5.0%
C#CC1CN(Cc2ccccc2)CC(C#C)N1C (stereo not given)	-22.0%
CC(C(=O)N1CCN(Cc2ccc3c(c2)OCO3)CC1)c1ccc([N+](=O)[O-])cc1 (stereo not given)	-15.3%
CC(NC(=O)CCc1nnc(C2(c3ccc(Cl)cc3)CCC2)o1)C1CC1 (stereo not given)	-5.8%
NC(=S)Nc1cccc(F)c1	-10.5%
CCOC(=O)NC(=O)/C(C#N)=N\Nc1ccc(Cl)cc1	-1.1%
O=C(Cc1ccc(Cl)cc1)NNC(=O)c1ccco1	-19.4%
COc1ccc(/C=C\c2onc(C)c2S(=O)(=O)N2CCC(C(=O)Nc3cccc(OC)c3)CC2)cc1	8.4%
CSc1nc2ncc(C#N)cn2n1	-20.7%
COc1ccc(N(CC(=O)NCCSCc2ccco2)S(=O)(=O)c2ccccc2)cc1Cl	-2.4%
COCCCNC(=S)Nc1ccccc1[N+](=O)[O-]	-0.5%
CC(C)c1ccc(NC2CCCN(C(=O)c3ccnn3C)C2)cc1 (stereo not given)	0.8%
CCC(CC)c1nnc(NC(=O)COc2ccc3c(c2)OCO3)s1	79.4µM*
COc1ccc(OC(C)C(=O)NC(C)c2ccccc2)cc1 (stereo not given)	5.0%
CN(C)c1cccc(C(=O)OCC(=O)Nc2ccccc2Sc2ccccc2)c1	0.8%
O=C(COC(=O)c1ccc(O)cc1)Nc1cccc(S(=O)(=O)NC2=NCCC2)c1	-13.7%
Oc1c(CN2CCCCC2)cc(Br)c2cccnc12	-29.1%
O=c1oc2c(-c3ccc([N+](=O)[O-])cc3)cc(O)cc2s1	2.9%
Cc1cc(SCC(=O)NC(=O)NCc2ccco2)nc2ccccc12	-1.8%
CCOc1ccc(C2CC(=O)c3c([nH]c(C(=O)OC)c3C)C2)cc1OC (stereo not given)	15.4%
c1ccc2cc(OCCCn3ccnc3)ccc2c1	10.9%
COc1ccccc1NC(=O)C1=C(C)Nc2nc(SC)nn2C1c1ccccc1Cl (stereo not given)	-8.3%
Cc1ccc(N2CCN(C(=O)c3cn(C)c4ccc(S(=O)(=O)N5CCCC5)cc4c3=O)CC2C)cc1 (stereo not given)	-3.9%
Cc1nn(-c2ccccc2)c(C)c1C(=O)NCCc1ccc(Cl)cc1	7.9%
CCN(CC)CC(=O)Nc1ccc2c(c1)N(C(=O)CN(CC)CC)c1ccccc1CC2	18.1%
Cc1cc(C(F)F)n2ncc(C(=O)NC3CCCCCC3)c2n1	17.4%
COC(=O)CN1C(=O)[C@H]2[C@@H](/C=C/c3ccccc3)N3C(=O)CN(Cc4ccccc4)C(=O)[C@@]3(C)[C@H]2C1=O	1.8%
CN(C(=O)/C=C/c1ccc(F)cc1)C1CCCCC1	4.5%
COc1ccc(C2/C(=C(\O)c3ccc4c(c3)OCCO4)C(=O)C(=O)N2Cc2cccnc2)cc1 (stereo not given)	-6.7%
COc1ccc(/C=N/NC(=O)C(Cc2c[nH]c3ccccc23)NC(=O)OCC(C)C)cc1[N+](=O)[O-] (stereo not given)	-7.0%
Cc1cc(-c2ccc(C)c(S(=O)(=O)NCc3cccs3)c2)on1	4.5%
CCOc1ccc(OCC(=O)Nc2ccccc2C(F)(F)F)cc1	14.1%
COc1cccc(CNC(=O)c2cccc(NC(=O)C3=C(C)OCCS3)c2)c1	-3.0%
O=C(CNC(=O)c1ccco1)Nc1ccc(N2CCCCCC2)cc1	-14.9%
Cc1cccc(CCNC(=O)CNS(=O)(=O)c2ccc3nc(C)sc3c2)c1	16.0%
CCOC(=O)N1CCN(C(=S)NC(=O)C23CC4CC(CC(C4)C2)C3)CC1	-8.2%
Cc1occc1-c1nnc(SCC(=O)N2CCOCC2)o1	8.6%
CN1CCN(c2ncc3nc(-c4ccc(Cl)cc4)c(=O)n(-c4ccccc4)c3n2)CC1	-10.7%
CC1CCCN(C(=O)c2nn(C)c3c2CS(=O)(=O)c2ccccc2-3)C1 (stereo not given)	3.3%
CCOc1ccc(CCNC(=O)c2nn(C)c3c2CS(=O)(=O)c2ccccc2-3)cc1OCC	12.0%
COc1ccc(NC(=O)CN(C)CC(=O)Nc2sc3c(c2C#N)CCC3)cc1	-1.4%
COc1ccc(NC(=O)c2cccc3ccccc23)cc1	-6.1%
CCCC[C@@H](CNC)NC[C@H](Cc1ccc(O)cc1)NCCc1ccc(OCC)cc1	-9.3%
CNC(=O)c1[nH]cnc1C(=O)Nc1ccc(OC)cc1	1.3%

Arranged by the number under VDR inhibitor (ascending): three from the list above
molecule,VDR inhibitor
CCOC(=O)N1CCN(C(=S)NC(=O)C23CC4CC(CC(C4)C2)C3)CC1,-8.2%
COc1ccc(NC(=O)CN(C)CC(=O)Nc2sc3c(c2C#N)CCC3)cc1,-1.4%
CC1CCCN(C(=O)c2nn(C)c3c2CS(=O)(=O)c2ccccc2-3)C1 (stereo not given),3.3%

Next structures follow.
SMILES	VDR inhibitor
Nc1nc(NCCO)nc(NCc2ccccc2)c1[N+](=O)[O-]	55.3%[activator]
NC(=O)CC1C(=O)N(c2ccccc2)C(=S)N1NC(=O)c1ccc(Br)cc1 (stereo not given)	-11.9%
O=c1c(-c2ccc(O)cc2)coc2cc(O)cc(O)c12	5.7%&-1.9%&-8.5%
CCOC(=O)C1=C(C)N=C(SC)N(C)C1c1ccccc1 (stereo not given)	8.5%
Nc1nonc1-n1nnc(C(=O)N/N=C/c2cccnc2)c1CSc1ccc(Cl)cc1	10.1%
COc1cccc(C2=CC(=O)C[C@H](c3ccc(F)cc3)C2)c1OC	-21.6%
Cc1cc(NC(=O)CS(=O)(=O)c2cn(Cc3ccccc3Cl)c3ccccc23)no1	-10.6%
O=C(c1cccc(S(=O)(=O)N2CCCCCC2)c1)N1CCN(c2ccccc2F)CC1	-9.4%
COc1ccc(NC(C#N)c2ccccc2OCc2ccccc2)cc1 (stereo not given)	-6.9%
O=C(CS(=O)CC(=O)N(CC(=O)NC1CCCC1)c1ccc2c(c1)OCCO2)Nc1ccc(F)cc1 (stereo not given)	-1.8%
C#CCN1C(=O)C(O)(CC(=O)c2cc(OC)ccc2OC)c2ccccc21 (stereo not given)	-3.9%
Cc1ccc(-n2nnnc2-c2cnc3cc4c(cc3c2C)OCO4)cc1	10.1%
CCN(CC)S(=O)(=O)c1ccc(NC(=O)COc2cccc(-n3cnnn3)c2)cc1	13.9%
CC1CCCCN1C(=O)COC(=O)CSc1ccc(C(N)=O)cc1[N+](=O)[O-] (stereo not given)	5.9%
CCc1cc(C(=O)N/N=C/c2ccc(O)cc2)c2ccccc2n1	0.3%
CCOC(=O)c1c(CN(C)C)oc2cc(CN(C)C)c(O)c(CSc3ccccc3)c12	15.8%
COc1ccc(S(=O)(=O)N2CCOCC2)cc1NC(=O)CSc1cc(C)ccc1C	-2.4%
O=C(O)CN1C(=O)/C(=C\c2cccc(OCc3ccccc3F)c2)SC1=S	?
CC(=O)c1cccc(CN2CCC(n3nccc3NC(=O)CCCc3ccccc3)CC2)c1	-13.0%
CC(=O)NCCc1ccc(S(=O)(=O)NCc2ccc3c(c2)OCO3)cc1	1.8%
CC(C)(C)N/N=C1\CC(c2ccccc2)Oc2ccccc21 (stereo not given)	-4.9%
Cc1ccc(SCCC(=O)N2CCC(C)CC2)cc1	-1.9%
CC1CC(C)CN(C(=O)c2ccc(NS(=O)(=O)c3ccc4[nH]c(=O)[nH]c4c3)cc2)C1 (stereo not given)	-7.6%
Cn1c(Cc2ccccc2)nnc1SCC(=O)NCCc1ccccc1	-17.3%
COc1ccc(Br)cc1CNCCSc1nnnn1C	-16.4%
Clc1ccc(-c2cccs2)nn1	-8.4%
COc1ccc(N2CCN(C(CNC(=O)c3cccc(OC)c3)c3cccnc3)CC2)cc1 (stereo not given)	-10.3%
CCc1ccc(NC(=O)Cn2c(=O)n(Cc3ccc(C)cc3)c(=O)c3cccnc32)cc1	11.1%
C=CCc1c(N(CC)CC)nc(C)[nH]c1=O	16.1%
NC(=O)c1oc2ccccc2c1NC(=O)CCc1ccccc1	?

Entries from the list above with an NH in an aromatic ring, in the order listed:
SMILES	VDR inhibitor
CCOc1ccc(C2CC(=O)c3c([nH]c(C(=O)OC)c3C)C2)cc1OC (stereo not given)	15.4%
COc1ccc(/C=N/NC(=O)C(Cc2c[nH]c3ccccc23)NC(=O)OCC(C)C)cc1[N+](=O)[O-] (stereo not given)	-7.0%
CNC(=O)c1[nH]cnc1C(=O)Nc1ccc(OC)cc1	1.3%
CC1CC(C)CN(C(=O)c2ccc(NS(=O)(=O)c3ccc4[nH]c(=O)[nH]c4c3)cc2)C1 (stereo not given)	-7.6%
C=CCc1c(N(CC)CC)nc(C)[nH]c1=O	16.1%

(more compounds)
SMILES	VDR inhibitor
CCC(=O)Nc1nc2ccc([N+](=O)[O-])cc2s1	17.9%
COC(=O)c1c(-c2ccc(C)cc2)csc1NC(=S)NC(=O)c1ccc(F)cc1	-11.4%
Nc1ccc(-n2nncc2-c2ccccc2)cc1	0.0%
CCCCn1c(SCC(=O)Nc2cc(C)on2)nnc1-c1cccs1	-0.9%
CCN(c1ccc(NC(=O)COC(=O)c2ccc3ccccc3n2)cc1)C(C)C	12.4%
CCN(CC)c1ccc(/C=N/N2CCOCC2)cc1	5.5%
O=C(Oc1ccc(N2C(=O)CCC2=O)cc1)c1ccco1	-12.2%
CCn1c(SCC(=O)N2CCc3ccccc32)nnc1-c1ccco1	5.1%
CC(C)C1C(C#N)=C(N)SC(N)=C1C#N	4.0%
COc1ccc(C(=O)Nc2cc(C(=O)O)cc(C(=O)O)c2)cc1Cl	5.9%
Cc1nn(C(C)(C)C)c(OC(=O)c2cccc(F)c2)c1Sc1ccccc1	-19.4%
CC(C)(C)OC(=O)N1CCC(c2c(C(=O)N3CCN(c4ncccn4)CC3)cnn2-c2ccccc2)CC1	17.0%
O=C(NCC1CCCO1)c1ccc(Br)c(S(=O)(=O)N2CCOCC2)c1 (stereo not given)	-5.6%
Cc1ccc(-c2nnc(SCC(=O)N3c4ccccc4NC(=O)C3(C)C)n2N)cc1	1.9%
O=C(Nc1ccc(Cc2ccncc2)cc1)c1ccc([N+](=O)[O-])o1	-2.2%
O=C(NCC(=O)N1CC=C(c2ccccc2)CC1)c1ccccc1Br	-6.1%
COc1ccc(Cl)cc1NC(=O)CN(c1cc(C)cc(C)c1)S(=O)(=O)c1c(C)n[nH]c1C	-14.8%
CN(C)S(=O)(=O)c1cccc(NC(=O)COC(=O)/C=C/c2cccs2)c1	8.3%
CCCCNC(=O)c1nn(-c2ccccc2OC)c(=O)c2ccccc12	2.6%
CCN1C(=O)c2cccc3c(S(=O)(=O)Nc4ccccc4O)ccc1c23	-6.7%
CC(C)(C)OC(=O)N1CCC(c2c(C(=O)NCCN3CCC(Cc4ccccc4)CC3)cnn2-c2ccc(F)cc2)CC1	1.4%
COc1ccccc1NC(=O)C1=C(C)Nc2c(C(=O)Nc3cccc(C)c3)cnn2C1c1ccccc1Cl (stereo not given)	14.9%
CC(=O)Nc1ccc(SCC(=O)c2cc(C)n(-c3ccccc3F)c2C)cc1	-18.2%
Cc1cc(C)nc(NC(=NCCc2c[nH]c3ccccc23)NC(=O)Nc2ccc(Cl)cc2)n1	-16.2%
COc1ccc(NS(=O)(=O)c2cc([N+](=O)[O-])ccc2NN=Cc2ccccc2OCC(=O)O)cc1	?
Cc1cc(C)cc(OCC(=O)Nc2ccc(-n3cnnn3)cc2)c1	-4.6%
CCCCN(C)S(=O)(=O)c1cc(-c2cc(C)no2)ccc1C	19.3%
COc1cccc(-c2n[nH]c3c2CCC3)c1	11.2%
C[C@@H]1[C@@H](Sc2ccccc2)CC(=O)O[C@@H]1c1ccc(-c2ccccc2)cc1	3.9%&-27.4%
CC1CN(C(=S)Nc2cccc(Cl)c2)CC(C)O1 (stereo not given)	-3.7%
CN(C)c1cccc(F)c1C(=O)NC(=O)Nc1ccc(Cl)cc1	-21.7%
Cc1cc(N2CCCC2)nc2ccc(NC(=S)NCCCN3CCC(C)CC3)cc12	-17.1%
COc1ccc(CNC(=O)[C@@H](NC(=O)C2CCN(S(=O)(=O)c3ccccc3)CC2)C(C)C)cc1	-9.7%
